High-throughput results: PubChem, ICCB-Longwood Screening Facility, Harvard Medical School
Sa growth inh: blocks Staphylococcus aureus growth | S. aureus RN4220 growth, OD600, 20 h, 42 °C; active compounds read low | relative growth, % (no concentration beside the values) | hit rate 0.53% among 170,000 | AID 720641;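 active = growth at 42 °C up to 50% and 20 or more points under that at 30 °C, or under 10% at both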;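 note: 300 nL library stock went into each well; scaled to the means of positive and negative controls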
HCMV UL50-53 inh: inhibitors of HCMV UL50-UL53 nuclear egress complex interaction; HTRF UL50-UL53 interaction, normalized percent inhibition; inhibition, % (concentration not given with the values); hit rate 0.15% among 190,000; AID 1918969;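 active = both replicates at 50% or more, plus weaker picks with an unusually low signal ratio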;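 note: stock transfer was 100 nL into about 20 µL; 0% = negative control wells and 100% = wells with untagged competitor protein; inactives centre near -12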
GIV-Gai inh: inhibitors of GIV GBA-motif binding to rat Galpha-i3. AID 1224905. Galpha-i3/FITC-GIV peptide fluorescence polarization, 90 min; active compounds read low; scaled: aluminum fluoride 0%, vehicle 100%. hit rate 0.42% among 210,000. P08753. percent of control (FP), % (no concentration beside the values);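 active = replicate mean at 85% of control or lower, very high polarization wells dropped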;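 note: wells of about 15 µL received 100 nL stock; the first replicate is given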
Target sequence (P08753 whole entry, looked up): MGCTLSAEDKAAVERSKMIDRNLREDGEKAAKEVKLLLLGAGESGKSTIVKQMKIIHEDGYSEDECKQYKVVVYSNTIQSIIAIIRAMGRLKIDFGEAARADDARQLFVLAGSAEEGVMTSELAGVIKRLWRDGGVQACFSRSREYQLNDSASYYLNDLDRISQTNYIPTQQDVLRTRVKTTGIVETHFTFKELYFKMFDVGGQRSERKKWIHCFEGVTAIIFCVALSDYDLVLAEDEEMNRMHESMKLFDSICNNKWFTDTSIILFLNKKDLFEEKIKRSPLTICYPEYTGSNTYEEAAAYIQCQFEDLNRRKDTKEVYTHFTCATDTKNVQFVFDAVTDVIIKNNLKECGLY
Sa growth inh second temp: further read-out of Sa growth inh, marked with its call; relative growth, %; measured here: growth at 30 °C;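 optical density after 20 h as mean of two plates; 100% = untreated growth and lower means inhibition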
Active calls of the source: *; nt = not tested or not shown.

Every second line gives: Sa growth inh	Sa growth inh second temp	HCMV UL50-53 inh	GIV-Gai inh
> CCn1c(CN2CCCCC2)nc2cc(NC(C)=O)ccc21
 : nt	nt	-9	107
> O=C(O)c1cc(N2CCCN(c3ncccn3)CC2)ccc1NC(=O)C1CCCC1
 : nt	nt	-52	99
> COC(=O)c1ccc(-c2ccco2)n1CC(=O)NC1CCCC1
 : 91	82	nt	103
> COc1ccc(NCc2cc3ccc(OC)cc3n(CC(=O)Nc3cccc(OC)c3)c2=O)cc1
 : 90	93	nt	103
> COc1ccc(C(=O)Nc2ccccc2-c2nc3ccccc3s2)c(OC)c1
 : 88	99	nt	110
> CCOC(=O)c1ccc(NC(=O)c2ccc(CN3CC(=O)N4CCCCC4C3=O)cc2)cc1 (stereo unspecified)
 : 103	93	-19	104
> Cc1cc(F)ccc1NC(=O)CCn1nc(C)c(S(=O)(=O)N2CCCCC2)c1C
 : 87	83	nt	101
> O=C1CC(c2ccco2)CC2=C1C(c1ccccc1)n1c(nc3ccccc31)N2 (stereo unspecified)
 : 83	88	-24	97
> O=C(O)C1CCN(c2nnc(N3CCCCC3)c3ccccc23)CC1
 : nt	nt	25	106
> C=C(C)C(=O)Nc1ccc(O)cc1C(=O)O
 : 101	90	-2	nt
> CCOc1ccc(CNC(=O)c2cnc3sc(N4CCOCC4)nn3c2=O)cc1
 : 95	87	nt	105
> CCN(CC(=O)Nc1ccc(OC)cc1)C(=O)Cc1cccs1
 : 96	82	-16	nt
> CN=c1scc(-c2cccs2)n1/N=C/c1ccccc1O
 : 101	83	-12	nt
> COc1ccc(-c2nnc3ccc(SCC(N)=O)nn23)cc1
 : 90	89	nt	103
> C=CCSc1nc2c(c(=O)n1C1CCOC(C)(C)C1)C1(CCCC1)Cc1ccccc1-2 (stereo unspecified)
 : nt	nt	6	109

One compound at a time, from the list above. Values in the order: Sa growth inh | Sa growth inh second temp | HCMV UL50-53 inh | GIV-Gai inh
O=C(O)C1CCN(c2nnc(N3CCCCC3)c3ccccc23)CC1 across the screens: nt | nt | 25 | 106
CN=c1scc(-c2cccs2)n1/N=C/c1ccccc1O across the screens: 101 | 83 | -12 | nt

New compounds follow:
Every second line gives: Sa growth inh	Sa growth inh second temp	HCMV UL50-53 inh	GIV-Gai inh
> COc1cc2c(cc1OC)C(c1cccs1)N(C(=O)C1CC1)CC2 (stereo unspecified)
 : 108	99	-8	nt
> Brc1ccc(Nc2ncnc3c2cnn3-c2ccccc2)cc1
 : 102	94	-6	98
> CC1=C(C(=O)OC2CCCCC2)C(c2coc3ccc(Cl)cc3c2=O)C2=C(CC(C)(C)CC2=O)N1 (stereo unspecified)
 : nt	nt	-10	92
> CCCCNC(=O)Cn1c(=O)oc2ccccc21
 : 91	84	-17	nt
> CC(=O)Nc1cc(C)nn1C(C)(C)C
 : 107	101	nt	101
> CN(C)S(=O)(=O)c1ccc(C(=O)Nc2c3c(nn2-c2ccc(Oc4ccccc4)cc2)CSC3)cc1
 : nt	nt	-18	98
> O=C(NCCc1ccc(Cl)cc1)c1ccc(CN2CC(=O)N3CSCC3C2=O)cc1 (stereo unspecified)
 : nt	nt	-17	104
> O=C(NC1CCCC1)c1noc2c1CCc1ccccc1-2
 : 101	89	-1	105
> Cc1nc(N(C)C)cc(N2CCN(C(=O)c3cccc(Cl)c3)CC2)n1
 : nt	nt	-21	102
> COc1cccc(NC(=O)c2cnc(SC)n(C)c2=O)c1
 : 82	75	-20	107
> COc1cccc(CNC(=O)c2cccc(-n3c(C)nc4cccnc43)c2)c1OC
 : 103	101	nt	108
> Cc1cccc(CC(=O)Nc2cc(C)c3c(=O)oc4ccccc4c3n2)c1
 : 109	102	6	110
> CCN(CC)c1ccc(/C=C/C(=O)NCCN2CCC(N(C)C3CCCCC3C)CC2)cc1 (stereo unspecified)
 : 128	77	-53	113
> O=c1onc(-c2cccc(C(F)(F)F)c2)n1-c1ccccc1
 : 99	95	0	106
> O=C(c1ccccc1)N1CCCN(c2c(Cl)cncc2Cl)CC1
 : 113	86	-6	109

Individual results from the results shown:
O=C(NCCc1ccc(Cl)cc1)c1ccc(CN2CC(=O)N3CSCC3C2=O)cc1 (stereo unspecified) in GIV-Gai inh: 104
CC1=C(C(=O)OC2CCCCC2)C(c2coc3ccc(Cl)cc3c2=O)C2=C(CC(C)(C)CC2=O)N1 (stereo unspecified) in HCMV UL50-53 inh: -10

Later entries.
Every second line gives: Sa growth inh	Sa growth inh second temp	HCMV UL50-53 inh	GIV-Gai inh
> CC1CN(C(=O)CSc2nc3scc(-c4ccccc4)c3c(=O)n2N)CC(C)O1 (stereo unspecified)
 : 79	88	-18	nt
> Cc1ccc2c(c1)nnn2C1CCN(CC(=O)N(c2ccccc2)c2ccccc2)CC1
 : 93	74	-8	105
> Cc1sc2nc(C(C)C)n3c(=S)[nH]nc3c2c1C
 : 111	70	-6	105
> CCOc1ccc(CNC(=O)C2CCN(S(=O)(=O)c3cn(C)cn3)CC2)cc1
 : 92	90	nt	93
> Cc1[nH]c2ccccc2c1C(=O)CN1C(=O)NC2(CCOc3ccccc32)C1=O (stereo unspecified)
 : 89	75	-1	nt
> O=C1NC(=Nc2ccccc2)S/C1=C/c1cccs1
 : 112	87	nt	102
> CCc1ccc(-n2c(=O)c3cccnc3n2CC(=O)NCc2ccc(F)cc2)cc1
 : 105	91	nt	108
> COc1cc(C2CC(=O)N(Cc3cccc(F)c3)c3ccccc3S2)cc(OC)c1OC (stereo unspecified)
 : 97	95	-10	103
> COCCN1C(=O)c2ccccc2C(C(=O)N2CCCC2)C1c1c[nH]c2ccccc12 (stereo unspecified)
 : 83	83	nt	104
> CN1CCC(NCc2ccccc2)CC1
 : 82	84	-4	98
> CC(Sc1ncnc2ccccc12)C(=O)O (stereo unspecified)
 : 93	83	-7	100
> Cc1ccc(CNC(=O)CCCn2c(=O)c3ccccc3n(Cc3ccc(Cl)cc3)c2=O)cc1
 : 91	97	-13	100
> COc1ccc(Br)cc1/C=C1\N=C(c2c(-c3ccccc3)noc2C)OC1=O
 : nt	nt	-15	105
> Cc1ccccc1OCc1ccc(-c2nc(C#N)c(N3CCCCC3)o2)o1
 : 95	72	15	107
> O=S1(=O)C[C@H](N2CCCC2)[C@@H](S(=O)(=O)c2ccc(F)cc2)C1
 : nt	nt	-16	99

A portion taken from the entries so far, for reference:
Every second line gives: Sa growth inh	Sa growth inh second temp	HCMV UL50-53 inh	GIV-Gai inh
> O=C1NC(=Nc2ccccc2)S/C1=C/c1cccs1
 : 112	87	nt	102
> CCc1ccc(-n2c(=O)c3cccnc3n2CC(=O)NCc2ccc(F)cc2)cc1
 : 105	91	nt	108
> COc1cc(C2CC(=O)N(Cc3cccc(F)c3)c3ccccc3S2)cc(OC)c1OC (stereo unspecified)
 : 97	95	-10	103

The listing picks up, starting 4 compounds before the break.
Every second line gives: Sa growth inh	Sa growth inh second temp	HCMV UL50-53 inh	GIV-Gai inh
> Cc1ccc(CNC(=O)CCCn2c(=O)c3ccccc3n(Cc3ccc(Cl)cc3)c2=O)cc1
 : 91	97	-13	100
> COc1ccc(Br)cc1/C=C1\N=C(c2c(-c3ccccc3)noc2C)OC1=O
 : nt	nt	-15	105
> Cc1ccccc1OCc1ccc(-c2nc(C#N)c(N3CCCCC3)o2)o1
 : 95	72	15	107
> O=S1(=O)C[C@H](N2CCCC2)[C@@H](S(=O)(=O)c2ccc(F)cc2)C1
 : nt	nt	-16	99
> CC(C)c1ccc(OCC(=O)Nc2c(Cl)ccc3nsnc23)cc1
 : 74	86	-26	106
> CC(=O)Nc1oc(-c2ccco2)c(-c2ccco2)c1C#N
 : 122	88	-39	nt
> CC(C)(C)C(=O)OCc1nc(-c2ccc3c(c2)OCO3)cs1
 : 96	82	27	102
> CCN(CC)S(=O)(=O)c1cc(-c2n[nH]c(=O)c3c2CCCC3)ccc1C
 : nt	nt	-16	97
> Cc1ccc(CNS(=O)(=O)N(C)C)cc1
 : 94	94	3	nt
> O=C(Nc1ccccc1SCC(O)Cn1ccc2ccccc21)c1ccc(Cl)cc1 (stereo unspecified)
 : 99	91	-24	105
> CCc1cccc(NC(=O)c2cc3cc4ccc(C)cc4nc3s2)c1
 : 98	74	nt	99
> Cc1nc2nncn2c(NCc2ccccc2)c1C
 : nt	nt	-16	103
> Cn1c(SCc2cc(=O)n3ccsc3n2)nnc1C1CC1
 : 102	81	-3	106
> CC12CC(NC(=O)N1c1ccc(C(=O)NCc3ccccc3)cc1)c1ccccc1O2 (stereo unspecified)
 : 93	84	nt	100
> Cc1n[nH]c(C)c1C12CC3CC(CC(C3)C1)C2
 : 105	88	-2	nt
> Cc1cc(Nc2ccc(O)cc2)n2c(nc3ccccc32)c1C#N
 : 110	112	-6	96
> CCOC(=O)N1CCN(Cc2sccc2C)CC1
 : 96	115	-3	101
> O=C(CCn1nnc2cc(S(=O)(=O)N3CCCC3)ccc21)NCc1ccccn1
 : nt	nt	-19	116
> CC1=C(C(N)=O)C(c2cccc(Br)c2)n2nc(SCc3ccccc3)nc2N1 (stereo unspecified)
 : 109	91	-10	106
> Cc1ccc(CN2C(=O)C3CCCCC3C2=O)cc1S(=O)(=O)NC1CCC(C)CC1 (stereo unspecified)
 : nt	nt	-15	98
> O=C(CCOc1ccccc1)NCCc1nc2ccccc2[nH]1
 : 99	88	2	102
> Cc1ccc(NC(=O)COc2ccc(-c3nn(C)c(=O)c4ccccc34)cc2)cc1
 : 76	87	-36	98
> O=C(Nc1ccc2c(c1)OCO2)N1CCN(c2ccc(-c3noc(C4CCC4)n3)cc2)CC1
 : nt	nt	-29	106
> CNC(=O)CSc1cn(CC(=O)N(C(C)C)C(C)C)c2ccccc12
 : 90	84	-19	98
> O=C(CSc1nnc(-c2sc3ccccc3c2Cl)o1)N1CCN(C(=O)c2ccco2)CC1
 : 49	44	-38	nt
> c1ccc(-c2nn3c(-c4ccccc4)nnc3s2)cc1
 : 90	75	nt	100
> Cc1cccc(C)c1OCC(=O)N1CCC(c2nc3ccccc3o2)CC1
 : 107	82	-25	99
> Cc1ccc(S(=O)(=O)NCC(Nc2cccc(Cl)c2)c2ccccc2)cc1 (stereo unspecified)
 : 79	76	-6	105
> CN1CCN(c2ncnc3scc(-c4ccc(Cl)cc4)c23)CC1
 : nt	nt	-21	98
> OCCn1c(SCCOc2ccc(Cl)cc2)nc2ccccc21
 : nt	nt	-3	98
> O=C(N1CCN(CCO)CC1)C(F)(F)C(F)(F)C(F)(F)C(F)(F)F
 : 99	84	10	98
> Cc1ccc(OCC(=O)OCc2cc(=O)n3nc(C4CCCCC4)sc3n2)cc1
 : 86	97	nt	111
> CN1C(=O)c2ccccc2N2C(=O)CCC12C(=O)OCc1ccccc1F (stereo unspecified)
 : 90	100	5	nt
> O=C(Cc1ccc(-n2c(=O)c3ccccc3n(CC(=O)NC3CCCCC3)c2=O)cc1)NC1CC1
 : nt	nt	-8	97
> CCCCOc1ccc(C(=O)NCC2(N3CCN(C)CC3)CCCCC2)cc1
 : 118	78	-17	98
> COCCn1c(C)cc(C(=O)COC(=O)c2cccc(O)c2)c1C
 : 116	104	-2	nt
> CC1=C(C(=O)Nc2ccc(C(=O)NCC3COCCO3)cc2)SCCO1 (stereo unspecified)
 : 96	91	-18	101
> O=C(Cc1cn2ccsc2n1)N/N=C/c1ccc(N2CCCCC2)cc1
 : 83	95	-56	nt
> NC(=O)CSc1nc2sc3c(c2c(=O)n1CCc1ccccc1)CCCC3
 : nt	nt	8	105
> CC(C)NC(=O)Cn1nc(Cc2ccncc2)c2ccccc2c1=O
 : 82	89	nt	102
> O=C(Nc1nnc(C2CC2)s1)C(c1ccccc1)c1ccccc1
 : 99	88	-25	nt
